Screens from PubChem BioAssay.
Vaccinia Venus = vaccinia inhibition (Venus reporter); hit rate 0.46% among 330,000; AID 720580; Vaccinia virus Venus reporter expression, fluorescence; Potency, µM (doses to about 36.5 µM), inactives show at the top dose activity change, negative = inhibition, actives largely listed as inhibitors; active means well fitted inhibition curve with a large enough effect; inconclusive means small, poorly fitted or top-dose-only effect; inactive means no such curve, though single readings can be large or run the other way; tested in A549 cells; also: nearly all actives have a fitted effect of over 30% in size; inactives centre near -10
Vaccinia mCherry = vaccinia inhibition (mCherry reporter) | hit rate 0.63% among 310,000 | Potency, µM (doses to about 36.5 µM), inactives show top-dose activity change, negative = inhibition, actives largely listed as inhibitors | Vaccinia virus mCherry reporter infection, fluorescence; about a quarter of the inactives have no number; active = well fitted inhibition curve with a large enough effect; inconclusive = small, poorly fitted or top-dose-only effect; inactive = no such curve, though single readings can be large or run the other way; tested in A549 cells; also: nearly all actives have a fitted effect of over 35% in size; inactives centre near -10
* hit, by the source's call; i = inactive; ? = inconclusive; nt = no result given; & = joins results of further samples; [ ] = another dose, or the depositor's remark. % is scaled to controls: 0 for no effect and ±100 for the full control effect; potency is read from the fitted curve at half-maximal effect.

structure	Vaccinia Venus	Vaccinia mCherry
CCSc1nc2ccccc2c(=O)n1-c1c(C)n(C)n(-c2ccccc2)c1=O	-11.1%	-16.4%
COC(=O)CSc1nc(-c2ccc(F)cc2)cc(C(F)(F)F)n1	-5.5%&-7.4%	-13.0%
CC(OC(=O)C1CC1)C(=O)Nc1cc(Cl)cc(Cl)c1 (stereo not given)	-10.1%	i
CC(=O)Nc1ccc(SCC(=O)Nc2ccc(Cl)cn2)cc1	8.3%	-7.5%
COC(=O)C1(Cc2cc(-c3ccc([N+](=O)[O-])cc3)no2)CCN(C(=O)OC(C)(C)C)CC1	-16.5%	i
COc1cc(NC(=S)Nc2ccc(S(=O)(=O)N3CCOCC3)cc2)cc(OC)c1OC	-13.5%	-19.1%
Cc1ccc(C)c(NC(=S)c2ccccn2)c1	-6.2%	-13.8%
CCN1CCc2c(OCC(=O)N3N=C(c4cccs4)CC3c3ccc(F)cc3)cccc2C1=O (stereo not given)	?	?
CCOC(=O)C(CC)Sc1nnc2[nH]c(=O)cc(C)n12 (stereo not given)	-5.7%	i
Cc1cc(NC(=O)c2c(F)cccc2Cl)no1	6.0%	i
CC(OC(=O)c1cc(Br)ccc1O)C(=O)NCc1ccc2c(c1)OCO2 (stereo not given)	-7.6%	-9.1%
CCOC(=O)C1(C)CCCN(C(=O)c2ccc(OC)cc2)C1 (stereo not given)	-10.2%	40.1%[activator]
CCCCCCc1cc2cc(S(=O)(=O)c3ccc(Cl)cc3)c(=O)oc2cc1O	-23.6%	11.1%
O=[N+]([O-])c1ccc(S(=O)(=O)Nc2ccc(-c3ccccc3)cc2)cc1	-19.6%	-3.5%
Cn1ncc2c(NNC(=O)Cc3cccc4ccccc34)ncnc21	-13.3%	-6.9%
CNC[C@H]1Oc2cc(Br)ccc2S(=O)(=O)N([C@@H](C)CO)C[C@H]1C	-5.5%	i

3 structures out of the list, ordered by heavy-atom count, low to high.
structure	Vaccinia Venus	Vaccinia mCherry
Cc1cc(NC(=O)c2c(F)cccc2Cl)no1	6.0%	i
CC(OC(=O)c1cc(Br)ccc1O)C(=O)NCc1ccc2c(c1)OCO2 (stereo not given)	-7.6%	-9.1%
CCCCCCc1cc2cc(S(=O)(=O)c3ccc(Cl)cc3)c(=O)oc2cc1O	-23.6%	11.1%

(cont.)
structure	Vaccinia Venus	Vaccinia mCherry
N#Cc1ccc(NC(=O)CCc2nc3ccccc3s2)cc1	-16.3%	-22.1%
COc1ccc(CN2C(=O)C(CC(=O)NCc3ccco3)CC(C(=O)N(C(C)C)C(C)C)=C2C)cc1 (stereo not given)	-25.9%	-14.7%
Cc1ccc(-n2nc3c(N4CCC(C(=O)NCCC(C)C)CC4)nnc(C)c3c2C)cc1	?	?
CCN(C[C@H]1N[C@@](C)(C(=O)OC)[C@H]2C(=O)N(Cc3ccccc3)C(=O)[C@@H]12)C(=O)c1ccccc1	-6.3%	-3.9%
Cc1nc(/N=C\c2ccc(N(C)C)cc2)sc1C	1.7%	-11.6%
COc1ccccc1-c1noc2c1C(=O)N(Cc1cn(C3CCCC3)nn1)CC2	-1.0%	18.5%
CC(=O)Nc1ccc(Sc2ncnc3scc(-c4ccccc4)c23)cc1	-22.6%	-0.8%
COc1cccc(C2C(C#N)=C(N)SC(c3ccccc3)C2[N+](=O)[O-])c1 (stereo not given)	-11.9%	-13.7%
COC(=O)CCCn1cc(CN2CC(N3CCCC3)CS2(=O)=O)nn1 (stereo not given)	-2.3%	i
C1=CC2CC1CC2CNCc1ccco1 (stereo not given)	-9.9%	-14.0%
CN(CC(=O)Nc1c(Cl)cccc1Cl)C(=O)c1ccccc1-c1nc2ccccc2s1	-10.6%	-21.7%
COc1ccc(C2CC(=O)C=C(NCC3CCCO3)C2)cc1 (stereo not given)	-5.8%	-10.8%
COC(=O)CN1C(=O)[C@H]2[C@@H](C3CC3)N3C(=O)CN(Cc4ccc(-c5ccccc5)cc4)C(=O)[C@@]3(Cc3ccccc3)[C@H]2C1=O	-18.8%	?
Cn1c(N)c(N=Nc2ccc(S(N)(=O)=O)cc2)c(=O)n(C)c1=O	-5.2%	i
CCOC(=O)C1CCCN(C(=O)c2ccccc2NC(C)=O)C1 (stereo not given)	1.7%	-4.4%
Nc1c(C(=O)Nc2ccc(F)c(Cl)c2)sc2nc3c(cc12)N1CCC3CC1	?	?
COc1ccc(NC(=O)CNS(=O)(=O)c2ccccc2)cc1Cl	-12.3%	-18.2%
O=C(N/C(=C/c1cccnc1)C(=O)N1CCCCCC1)c1cccc(Br)c1	-9.6%	-8.1%
O=C(Nc1ccc([N+](=O)[O-])cc1)N1CCN(C(=O)C2CCCO2)CC1 (stereo not given)	-9.5%	-1.5%
CC(=O)Nc1ccc(S(=O)(=O)NC2CC2)cc1	-5.7%	i
O=C(CC1N=C2c3ccccc3N=C(SCc3ccc(F)cc3)N2C1=O)NCc1ccc2c(c1)OCO2 (stereo not given)	-4.1%	-8.4%
CCOc1ccccc1C(=O)NC(C(=O)N(C)Cc1ccc2c(c1)OCO2)C(C)C (stereo not given)	-15.5%	-26.3%
CC(C)N1C(=S)N(Cc2ccco2)C(=O)C1CC(=O)Nc1ccccc1 (stereo not given)	5.4%	-7.4%
O=C1C=C(c2cccc(Cl)c2O)C[C@@H](c2ccc3c(c2)OCO3)C1	-5.4%	-2.8%
CCO[C@H]1OC(C(=O)N2CCN(Cc3ccc4c(c3)OCO4)CC2)=C[C@@H](c2csc3ccccc23)[C@@H]1CCCO	?	?
O=C(OCc1cncs1)c1cccs1	-13.4%	-17.8%
Cc1ccc(C(O)(CCN2CCCCC2)c2ccccc2)cc1 (stereo not given)	-22.3%	i
CC(C)(C)C(=O)Nc1sc2c(c1C(=O)Nc1ccccn1)CCCC2	-10.1%	-1.2%
CC(C)c1ccc(NC(=O)N2c3ccccc3Sc3ccccc32)cc1	-6.9%	-10.5%
O=C(CSc1nc(=O)n(CCCN2CCOCC2)c2c1CCCC2)Nc1ccc(F)cc1F	-4.6%	i
COc1ccc(-c2cc(=O)oc3cc(OCC(=O)NCC(O)c4ccccc4)ccc23)cc1 (stereo not given)	4.6%	-4.8%
O=C(CSc1nnc(-c2ccc(O)cc2)o1)Nc1cccc(O)c1	-4.6%	-20.3%
CCC(=O)c1ccc(OCCSc2ncccn2)cc1	-15.2%	-20.8%
C=CCN1c2ccccc2C(=O)CS1(=O)=O	-19.4%&-0.9%	i
Cc1ccc(N2C(=O)Nc3ccc(Br)cc3C2(O)C(=O)NCCN(C)C)cc1C (stereo not given)	-11.6%	i
CN(C(=O)CSc1nnc(-c2ccccc2)o1)c1c(N)n(Cc2ccccc2)c(=O)[nH]c1=O	-4.0%	-4.8%
CCOc1ccc(/C=C/C(O)=C2/C(=O)NC3(C)CC2c2ccccc2O3)cc1OC (stereo not given)	?	?
CSC1=NCCN1C(=O)COc1ccccc1	-4.9%	4.9%
O=C(N/N=C/c1ccccn1)c1ccc(NC(=O)c2ccc(F)cc2)cc1	-15.5%	-25.5%
c1ccc(-c2nnc(-c3ccccc3)o2)cc1	-19.3%	nt
O=C(NCCc1nccs1)C1CCC(=O)N(Cc2cccc(C(F)(F)F)c2)C1 (stereo not given)	-16.1%	i
Cc1cc(C)c2c(=O)cc(C(=O)Nc3ccc(C)c(Cl)c3)oc2c1	?	i
COC(=O)CCCCCN1C(=O)NC(c2ccccc2)C(C(=O)OCc2ccccc2)=C1C (stereo not given)	-12.7%	i
Fc1ccccc1CSc1ncn[nH]1	-7.1%	-10.7%
CCCCC(=O)Nc1cc(-c2cn3cccnc3n2)ccc1C	-5.7%	-8.1%
Cc1cc(C(=O)Oc2ccccc2C(=O)O)c(C)o1	-4.3%	i
O=C(O)c1ccnc(Cl)c1	-6.5%	-14.5%
O=C(C[n+]1ccccc1)Nc1cc(C(F)(F)F)ccc1Cl	-6.9%	-0.1%
CCc1ccc(CN(C(=O)c2cc(=O)c3ccc(C)cc3o2)C2CCS(=O)(=O)C2)cc1 (stereo not given)	-15.0%[7.34 µM]	-9.3%[7.34 µM]
CCn1cc(C(=O)NCc2ccc(C)o2)c2cc(OC)c(OC)cc2c1=O	-16.2%	i
COC(=O)c1cc(CNC(=O)c2ccc(O)c(Cl)c2)ccc1OC	-10.6%	i
O=C(COC(=O)COc1ccccc1)Nc1ccc2c(c1)OCCO2	-7.2%	i
CN(c1ccc(C(=O)N2CCOCC2)cc1[N+](=O)[O-])C1CCCCC1	-13.6%	-18.9%
O=[N+]([O-])c1ccccc1NCc1c(O)ccc2ccccc12	-27.0%	-19.8%
Nc1cc(=O)[nH]c(SCC(=O)N2CCN(S(=O)(=O)c3ccc4ccccc4c3)CC2)n1	2.1%	0.4%
O=C1CC(c2nc(-c3ccccc3)no2)CN1c1ccccc1 (stereo not given)	3.5%	5.9%

(further entries)
structure	Vaccinia Venus	Vaccinia mCherry
Cn1ccc2cc(OCc3ccccc3)ccc21	-5.3%	-12.1%
CC(=O)Oc1cc(C(C)C)c(OCCN(C)C)cc1C	-5.5%	-14.3%
O=C(OCc1cccc([N+](=O)[O-])c1)c1cc2ccccc2oc1=O	-5.3%	-8.5%
CN1CCN(c2ccc(-c3nc(-c4ccccc4)no3)cc2[N+](=O)[O-])CC1	-9.8%	-17.9%
CC1CC(C)CN(CC(=O)N2CCc3[nH]c4ccccc4c3C2)C1 (stereo not given)	-26.9%	nt
O=C(Cn1c(-c2cccs2)cc2ccccc21)NCCCN1CCN(c2cccc(Cl)c2)CC1	-20.5%	-22.5%
COc1ccc2oc(-c3ccc(C)c(NC(=O)c4cccnc4)c3)nc2c1	-4.4%	-3.1%
CC(C)CC1CCCC12NC(=O)NC2=O (stereo not given)	4.5%	-6.5%
COc1ccc(N(C)C(=O)Cc2c(C(=O)O)n(C)c3ccccc23)c(OC)c1	-14.3%	-21.0%
COc1ccc(C)cc1NC(=O)c1cnc2n(c1=O)CCS2	?	?
Cc1cc(-c2n[nH]c(=S)n2/N=C/c2sccc2C)n[nH]1	-11.5%	i
O=[N+]([O-])c1nn(-c2ccc3c(c2)OCCO3)n(O)c1=Nc1ccc(Cl)cc1	-21.1%	-28.7%
CN(C)CCCN(Cc1cc2cc3c(cc2[nH]c1=O)OCO3)C(=S)NCc1ccco1	-11.5%	-26.7%
COC(=O)c1ccccc1NC(=O)Nc1cccnc1	-19.2%	-1.4%[1.46 µM]
O=C(Nc1ccccc1)Oc1cccc2cccnc12	-7.1%	-23.4%
CCN(C[C@H]1N[C@@](Cc2ccccc2)(C(=O)OC)[C@H]2C(=O)N(Cc3ccccc3)C(=O)[C@@H]12)C(=O)Nc1ccc(C)cc1	?	?
CCn1c(=S)sc2nc(C)sc21	-13.9%	-3.2%
O=[N+]([O-])c1ccc(Oc2ccc(S(=O)(=O)Nc3ccccc3)cc2)cc1	-25.2%	-23.1%
COc1cccc(C(=O)Nc2nnc(S(=O)(=O)Nc3cccc(C)c3)s2)c1	-2.7%	-4.2%
N#Cc1ccc(C2CC(OCCF)=CC(=O)O2)cc1 (stereo not given)	-5.8%	-8.9%
COC(=O)c1nnn(-c2nonc2N)c1-c1cccs1	-12.4%	i
CC(C)(C)OC(=O)N1CCc2onc(-c3ccc(-n4cc(C5=CCCCC5)nn4)cc3)c2C1=O	-3.0%	11.4%
CCOc1ccc(-c2cc(C(=O)NCc3ccc(C(F)(F)F)cc3)[nH]n2)c(C)c1	-10.6%	-13.8%
O=C(NCc1ccc(OC(F)(F)F)cc1)C1CC(c2cccc(F)c2)=NO1 (stereo not given)	?	-16.8%
Cn1c(N)c(C(=O)COC(=O)C2=COCCO2)c(=O)n(C)c1=O	7.9%	2.1%
Cc1ccc(CCNC(=O)C2CCN(c3nn4c(=O)cc(C)nc4s3)CC2)cc1	-17.8%	nt
CC(C)C(OC(=O)c1ccc(Cl)nc1)C(=O)NC1CCCCC1 (stereo not given)	-6.3%	i
Cc1ccc(C)c(NC(=O)C(Sc2ncnc3ccccc23)c2ccccc2)c1 (stereo not given)	-7.8%	-0.9%
CC(Oc1cccc(Cl)c1)C(=O)Nc1ccccc1C(=O)N1CCCCC1 (stereo not given)	-19.4%	-12.6%
CCOc1cccc2sc(NC(=O)c3ccc(S(=O)(=O)N4CCCc5ccccc54)cc3)nc12	-25.4%	-9.0%
CCOC(=O)C(Cc1ccc(OC)c([N+](=O)[O-])c1)NC(=O)CCC(=O)Nc1ccc(C)cc1 (stereo not given)	-4.2%	i
CCOC(=O)c1ccc(NC(=O)CNC(=O)C2CCCCC2)cc1	-20.2%	-28.2%
CC(C)(C)NC(=O)CC1C(=O)NCCN1Cc1c(F)cccc1Cl (stereo not given)	10.1%	i
Oc1ccccc1C1NCc2ccccc2-n2cccc21 (stereo not given)	-4.9%	-4.3%
Cn1c(=O)c2ccccc2n(Cc2ccccc2Cl)c1=O	-7.7%	-9.4%
Nn1cc(-c2ccccc2)nc1SCC(=O)Nc1ccc(S(N)(=O)=O)cc1	0.0%[7.34 µM]	34.2%[activator][7.34 µM]
CCn1c(=O)c2cc(S(=O)(=O)NCCOc3ccccc3)ccc2n(CC)c1=O	-7.9%	-13.5%
CN(C)c1ccc(-c2csc(C(O)c3ccc(F)cc3)n2)cc1 (stereo not given)	-5.1%	i
c1ccc(-c2ccc(-c3cnc4n3CCCCC4)cc2)cc1	8.5%	nt
